Assay outcomes as filed in PubChem BioAssay.
VACV mCherry inh: inhibitors of vaccinia virus infection (mCherry reporter signal) | 310,000 tested, 0.63% active | Potency, µM (top dose mostly 36.5 µM), for the others: at the top dose activity change, negative = inhibition, actives largely listed as inhibitors | Vaccinia virus mCherry reporter infection, fluorescence; about a quarter of the inactives have no number; active = well fitted inhibition curve with a large enough effect; inconclusive = small, poorly fitted or top-dose-only effect; inactive = no such curve, though single readings can be large or run the other way; tested in A549 cells; further: nearly all actives have a fitted effect of over 35% in size; inactives centre near -10
Vaccinia Venus: inhibitors of vaccinia virus (Venus reporter) | Vaccinia virus Venus reporter expression, fluorescence | Potency, µM (series often up to 36.5 µM), inactives show at the highest dose activity change, negative = inhibition, usual class: inhibitors | 330,000 tested, 0.46% active | AID 720580; active means well fitted inhibition curve with a large enough effect; inconclusive means small, poorly fitted or top-dose-only effect; inactive means no such curve, though single readings can be large or run the other way; tested in A549 cells; further: nearly all actives have a fitted effect of over 30% in size; inactives centre near -10
* hit, by the source's call; i = inactive; u = inconclusive; x = no result given; & = joins results of further samples. On the % scale 0 is the no-effect control and ±100 the full control effect; potency means the concentration at half of the fitted maximal effect.

| SMILES | VACV mCherry inh | Vaccinia Venus |
| --- | --- | --- |
| COc1cc(NC(=O)CSc2nc3ccccc3n2-c2ccccc2)c(C)cc1[N+](=O)[O-] | i | -16% |
| CCCCN1CC(COCc2ccccc2)Oc2cccc(OCCN3C(=O)[C@@H]4[C@H](C3=O)C3C=C[C@H]4C3)c2S1(=O)=O (some centres not stated) | -6% | -28% |
| COc1ccc(CCC(=O)OCC(=O)N(CC(C)C)c2c(N)n(Cc3ccccc3)c(=O)[nH]c2=O)cc1 | i | -9% |
| COc1ccccc1N1CCN(C(=O)CSc2nc(-c3ccco3)cc(C(F)(F)F)n2)CC1 | -8% | -9% |
| CCCCN(C)C(=O)c1c[nH]c2ccc(S(=O)(=O)N3CCOCC3)cc2c1=O | -7% | -4% |
| COc1cc(OC)cc(C(=O)Nn2cc(C(=O)N3CCN(C)CC3)c3ccccc3c2=O)c1 | -18% | -13% |
| COc1cccc(CNC(=O)CSC2=Nc3ccccc3C3=NC(C)C(=O)N23)c1OC (configuration not stated) | -16% | -1% |
| Cc1c(Cl)cccc1N(CC(=O)O)S(C)(=O)=O | -13% | -10% |
| CC1(C)Cc2nc3oc4c(SCC(N)=O)ncnc4c3cc2CO1 | u | u |
| O=C1CCCN1c1nccs1 | i | -9% |
| CN(C)CCCNCCCNC(=O)/C(=N\O)c1ccccc1 | i | -15% |
| CC(=O)Nc1cccc(NC(=O)CSc2nc3c(c(=O)n(C)c(=O)n3C)n2C)c1 | i | -14% |
| CC(C)(C)c1nnc2sc(SCC(=O)c3cccs3)nn2c1=O | x | 7% |
| CN(CC(=O)Nc1c(Cl)cccc1Cl)C(=O)C1CCN(C(=O)Nc2ccccc2)CC1 | -12% | -17% |
| Cc1ccc(C(=O)O)cc1N=Nc1c(O)[nH]c(=O)[nH]c1=O | -13% | -5% |
| CCN(CC)CCCCCC(=O)Nc1ccccc1C(=O)Nc1ccccc1 | -13% | -7% |
| CCOc1ccc(C(C(=O)NCC2CCCO2)N(Cc2cccc(OC)c2)C(=O)c2snc(C(N)=O)c2N)cc1 (configuration not stated) | -15% | -22% |
| COCCNC(=O)CSc1nc2cc3c(cc2c(=O)n1CCCCCC(=O)NCCc1ccc(OC)c(OC)c1)OCO3 | -2% | -12% |
| COc1ccc(C2=NOC(C(=O)N3CCN(c4ccccc4OC)CC3)C2)cc1 (configuration not stated) | 19% | 2% |
| COc1ccc(-c2cnnc(N/N=C/c3c(C)nn(-c4ccccc4)c3Cl)n2)cc1 | u | -17% |

Some of the entries above, reformatted.
> CN(C)CCCNCCCNC(=O)/C(=N\O)c1ccccc1
  VACV mCherry inh = i
  Vaccinia Venus = -15%

> CC(=O)Nc1cccc(NC(=O)CSc2nc3c(c(=O)n(C)c(=O)n3C)n2C)c1
  VACV mCherry inh = i
  Vaccinia Venus = -14%

> CC(C)(C)c1nnc2sc(SCC(=O)c3cccs3)nn2c1=O
  VACV mCherry inh = x
  Vaccinia Venus = 7%

> CN(CC(=O)Nc1c(Cl)cccc1Cl)C(=O)C1CCN(C(=O)Nc2ccccc2)CC1
  VACV mCherry inh = -12%
  Vaccinia Venus = -17%

Later entries
| SMILES | VACV mCherry inh | Vaccinia Venus |
| --- | --- | --- |
| CCCc1ccc(OCc2ccc(C(=O)Nc3ccccc3C(=O)OC)o2)cc1 | -7% | -9% |
| O=C(C[C@@H]1C/C=C\CC[C@@H](Cc2ccc(F)cc2)C(=O)OC[C@@H](Cc2ccccc2)NC1=O)NCCO | -15% | -30% |
| O=C(Nc1nc2ccccc2s1)c1cc(-c2ccco2)nc2ccccc12 | -6% | -14% |
| CN1C=CC(C(C(N)=O)c2ccccc2)c2ccccc21 (configuration not stated) | -10% | -7% |
| CCC(CC)C(=O)N1c2ccc(F)cc2CCC1C (configuration not stated) | -16% | -5% |
| O=C(Nc1ccccc1C(=O)N1CCCC1)C1COc2ccccc2O1 (configuration not stated) | -2% | -14% |
| COc1ccc(OCCCC(=O)NC(C)c2ccccc2)cc1 (configuration not stated) | -11% | -2% |
| O=C(Cc1ccc(F)cc1)NO | i | -12% |
| Cc1cc(-c2nnc(SCC(=O)Nc3ccc(C)c(C)c3)n2N)n[nH]1 | -21% | -2% |
| O=C(C[C@@H]1C/C=C\CC[C@H](Cc2ccc(F)cc2)C(=O)OC[C@@H](Cc2ccccc2)NC1=O)NCCO | i | -16% |
| COc1ccc(CN2C(=O)C(CC(=O)NCCN3CCOCC3)CC(C(=O)N(C)C)=C2C)cc1 (configuration not stated) | i | -5% |
| CCn1c(=NC(=O)c2ccc(S(=O)(=O)N3CCCC3)cc2)sc2cc(Br)ccc21 | -13% | -19% |
| c1ccc(-c2nnsc2-c2nc3ccccc3[nH]2)cc1 | -3% | -8% |
| CCOC(=O)CCC(=O)Nc1nnc2n1CCS2 | 8% | 10% |
| CCCCCc1nnc(NC(=O)c2ccc(N3CCCC3=O)cc2)s1 | -7% | -3% |
| CCN(CC(=O)NC1CCCC1)S(=O)(=O)c1ccc(Br)cc1 | i | -10% |
| COc1ccc([N+](=O)[O-])cc1NC(=O)C(C)N1CCCC1 (configuration not stated) | 2% | -4% |
| Cc1noc(C)c1S(=O)(=O)N1CCN(S(=O)(=O)c2ccccc2C#N)CC1 | -8% | 10% |
| Cc1ccc(S(=O)(=O)Nc2cccc(C(=O)N3CCOCC3)c2)cc1 | -2% | -7% |
| COc1ccc(C/C(C)=N/NC(=S)Nc2ccc(Cl)cc2)cc1 | u | -4% |

Some values from above.
Value for O=C(Cc1ccc(F)cc1)NO in Vaccinia Venus: -12%
Value for COc1ccc(C/C(C)=N/NC(=S)Nc2ccc(Cl)cc2)cc1 in Vaccinia Venus: -4%
Value for Cc1ccc(S(=O)(=O)Nc2cccc(C(=O)N3CCOCC3)c2)cc1 in Vaccinia Venus: -7%

The results go on.
| SMILES | VACV mCherry inh | Vaccinia Venus |
| --- | --- | --- |
| Cc1ccc(NC(=O)CN(C)S(=O)(=O)c2ccc3c(c2)n(C)c(=O)c(=O)n3C)c(C)c1 | -13%&-6% | -4%&-10% |
| O=C(O)c1cc(N(Cc2ccccc2O)Cc2cc(O)ccc2O)ccc1O | i | -16% |
| C=CCNCCOc1c(C)cc(C)cc1Cl | -11% | -2% |
| CCC(C)(C)NC(=O)CN(Cc1cccs1)C(=O)C(=O)Nc1ccc2c(c1)OCCO2 | -7% | -17% |
| O=C(/C=C/c1c[nH]c2ccccc12)c1cccc2ccccc12 | -15% | -27% |
| Cc1nc(-c2cccc(CN(C)C(=O)Oc3ccc([N+](=O)[O-])cc3)c2)no1 | i | -2% |
| Cc1ccc(N2C(=O)CC(C3CCCO3)C2=O)cc1 (configuration not stated) | -7% | -6% |
| CCN(C(=O)CN1CCN(Cc2ccccc2)CC1)c1c(N)n(Cc2ccccc2)c(=O)[nH]c1=O | 4% | 0% |
| CC(OC(=O)c1ccc(-c2ccc(O)cc2)cc1)C(=O)NC1CCCCC1C (configuration not stated) | -24% | -16% |
| O=C(Cn1c(=O)n(CCc2ccccc2)c(=O)c2cccnc21)Nc1ccc(F)cc1 | -13% | 5% |
| Cc1ccc(S(=O)(=O)C2C(=O)N(C)C3(C)CC2c2ccccc2O3)cc1 (configuration not stated) | -12% | -1% |
| Cc1cccc(C)c1C(OCCN(C)C)C1CCCCC1 (configuration not stated) | -10% | -11% |
| CCCC(=O)Nc1ccc2c(c1)C(=O)NC2=O | i | -6% |
| CCCCSc1nnc2n(-c3cccc(C)c3)c(=O)c3c4c(sc3n12)CCCC4 | 4% | -16% |
| Cc1ccc(S(=O)(=O)N2CCCCC2)cc1NC(=O)CCOc1ccccc1 | u | u |
| Cc1ccccc1N=C1SC(CC(=O)Nc2ccc3ccccc3c2)C(=O)N1Cc1ccccn1 (configuration not stated) | -27% | u |
| CC1CCCN(CCOc2ccc3ccccc3c2Br)C1 (configuration not stated) | -23% | -23% |
| Cc1ccc(C(=O)c2cc([N+](=O)[O-])ccc2N2CCCCC2)cc1C | u | u |
| CC1CCC(NC(=O)c2nc(Cn3ccc([N+](=O)[O-])n3)no2)CC1 (configuration not stated) | 3% | -2% |
| O=C(NCC(c1ccc(F)cc1)N1CCOCC1)c1ccc([N+](=O)[O-])o1 (configuration not stated) | -22% | -26% |
| COc1ccccc1C(=O)N[C@@H]1c2ccccc2C2(CCN(C(=O)c3ccnn3C)CC2)[C@H]1OC | -12% | 7% |
| CCOc1ccc(S(=O)(=O)N2CCC(C(=O)NCCN3CCOCC3)CC2)cc1C | -21% | -26% |
| CC(C)(C)C(=O)Cn1c(NCCCl)nc2ccccc21 | 1% | 3% |
| O=C(CN(c1ccc(Br)cc1)S(=O)(=O)c1ccc(Cl)c([N+](=O)[O-])c1)NCCc1ccccc1 | -6% | -4% |
| Cc1cc(C)cc(C(=O)NC(CC(N)=O)c2ccc(N3CCCCCC3)c([N+](=O)[O-])c2)c1 (configuration not stated) | i | 0% |
| O=[N+]([O-])c1ccc(SCc2ccco2)cc1N1CCOCC1 | -23% | -4% |
| Cc1c(N2C(=O)C3C4C=CC(C5CC45)C3C2=O)c(=O)n(-c2ccccc2)n1C (configuration not stated) | 5% | 14% |
| CCCC(=O)Nc1nnc(CC(=O)N2CCCC2)s1 | -1% | -12% |
| O=C(CN1C(=O)C2C3CC(C(Br)C3Br)C2C1=O)OCC(=O)c1cccc([N+](=O)[O-])c1 (configuration not stated) | -9% | -6% |
| Cc1cc(NC(=O)CN2C(=O)NC3(CCCCCC3)C2=O)no1 | i | -5% |
| CCCCn1c(NC(=O)c2ccc(Br)o2)c(C(=O)OCC)c2nc3ccccc3nc21 | -28% | 2% |
| O=C(Nc1ccc2c(c1)OCCO2)C(CCc1ccccc1)N1CCC(Cc2ccccc2)CC1 (configuration not stated) | i | -4% |
| O=[N+]([O-])c1ccc(Nc2nc(Cl)nc(NCCO)n2)cc1 | 6% | -10% |
| O=C(Cc1ccccc1)N1CCN(S(=O)(=O)c2cccc([N+](=O)[O-])c2)CC1 | i | -6% |
| Cc1ccc(S(=O)(=O)NC2=NCN(CCc3ccccc3)CN2)cc1 | -10% | -10% |
| c1ccc(-c2cc(-c3ccccc3)c3c(n2)-c2ccccc2OC3)cc1 | -6% | -10% |
| CCOC(=O)c1ccc(CN(Cc2ccccc2)S(=O)(=O)c2ccc(C)cc2)cc1 | -12% | -1% |
| Cc1ccc(S(=O)(=O)Nc2ccccc2C(=O)OC(C)C(=O)Nc2ccc3ccccc3c2)cc1[N+](=O)[O-] (configuration not stated) | i | -7% |
| COc1cccc(CNCCSc2nnnn2C)c1OCc1ccc(F)cc1 | 11% | 3% |
| O=C1CC(c2ccc(S(=O)(=O)NCc3ccncc3)cc2)CN1 (configuration not stated) | -5% | -2% |
| CCc1ccc(NC(=O)CC2S/C(=N/N=C3CCCCCC3)NC2=O)cc1 (configuration not stated) | -21% | -20% |
| CC(C)N(c1ccccc1)c1ccc(NC(=O)[C@@H]2O[C@H](CO)[C@H](O)[C@H](O)[C@H]2O)cc1 | i | 0% |
| CC(Cc1ccccc1)Nc1ncnc2c1ncn2C1OC(CO)C(O)C1O (configuration not stated) | i | -11% |
| COc1ccccc1CNC(=O)C1CCN(S(=O)(=O)c2c(C)noc2/C=C/c2cccs2)CC1 | -8% | -11% |
| O=C(NCC(c1cccnc1)N1CCN(c2ccccc2F)CC1)C1CCCCC1 (configuration not stated) | x | -20% |
| O=C(NNc1cc(N2CCOCC2)nc(N2CCOCC2)n1)c1ccc([N+](=O)[O-])cc1 | -10% | -4% |
| O=C(NCCS(=O)CCNC(=O)C(F)(F)F)C(F)(F)F | x | -6% |
| COc1ccc(-c2cc(C(=O)Nc3c(C)n(C)n(-c4ccccc4)c3=O)no2)cc1OC | -6% | 0% |
| O=C(Cc1ccccc1)NCC(=O)N/N=C/c1cccnc1 | -17% | -1% |
| Cc1ccccc1N1CCN(Cc2ccc(Br)o2)CC1 | -1% | 16% |
| O=C(c1ccc(Cl)cc1)C12CN3CN(CN(C3)C1)C2 | x | -12% |
| Nc1ccccc1C(=O)NCC1(c2ccccc2)CCCC1 | -13% | -8% |
| O=c1[nH]c(=S)[nH]c2sc3c(c12)CCCCCC3 | -3% | -15% |
| CCOC(=O)C1CCC(CN(Cc2ccccc2C)S(=O)(=O)c2ccc([N+](=O)[O-])cc2)CC1 (configuration not stated) | u | u |
| CCOC(=O)c1sc2nc(C)nc(Nc3ccc(OC)c(OC)c3)c2c1C | -3% | -4% |
| O=C(O)CCc1c2ccc(=O)c(O)c-2oc2c(O)c(O)ccc12 | -2% | -20% |
| COc1ccccc1N/C(N)=N/c1nc(CSc2ccc(C)cc2)cc(=O)[nH]1 | u | -22% |
| CC(C)(C)c1nc2c(Br)cc(Br)cc2c(=O)o1 | -14% | -7% |
| CCOc1ccc(N=Nc2c(=O)[nH]n3c(=O)cc(C)[nH]c23)cc1 | x | 3% |
| CCOc1ccc2c(c1)c1nc3ccccc3nc1n2C | i | -23% |
| CCC(C)NC(=O)c1nc2c(nnn2Cc2ccccc2Cl)c(=O)[nH]1 (configuration not stated) | -14% | -1% |
| CCCNC(=O)c1c[nH]c2ccc(S(=O)(=O)N(C)c3ccc(OCC)cc3)cc2c1=O | x | -26% |
